High-throughput results from PubChem.
GIRK2 activ – opens human GIRK2 potassium channels | P48051 | HEK293-GIRK2 thallium flux, Thallos fluorescence | calls only for hits at 25 µM | 0.05% of 63,000 active | AID 1259325;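 active means among the strongest 0.2% of first-round signals and kept after retests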;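 further: first round at about 10 µM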
Target sequence (P48051 whole entry, looked up): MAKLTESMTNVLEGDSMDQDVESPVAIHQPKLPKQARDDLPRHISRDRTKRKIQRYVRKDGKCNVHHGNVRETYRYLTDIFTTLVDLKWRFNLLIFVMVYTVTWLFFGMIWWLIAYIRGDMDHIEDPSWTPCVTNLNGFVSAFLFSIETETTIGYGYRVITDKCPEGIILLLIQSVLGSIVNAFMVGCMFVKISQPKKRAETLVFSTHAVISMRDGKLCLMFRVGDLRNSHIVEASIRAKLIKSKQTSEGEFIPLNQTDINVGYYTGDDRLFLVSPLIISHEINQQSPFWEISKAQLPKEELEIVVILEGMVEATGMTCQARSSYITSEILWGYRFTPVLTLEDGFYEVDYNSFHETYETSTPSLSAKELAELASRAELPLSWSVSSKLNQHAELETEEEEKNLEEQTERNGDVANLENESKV
Calls only; i = inactive. Some of the compounds tested, so the mix of outcomes need not match the whole.

SMILES	GIRK2 activ
COc1ccc(CC(C)(O)CNC(=O)Cc2cccs2)cc1 (stereo not given)	i
Clc1cccc(Cl)c1Cn1c(CN2CCOCC2)nc2ccccc21	i
Cc1cc(C)c2sc(NC(=O)CN3C(=O)c4ccccc4C3=O)nc2c1	i
NC(=O)c1nnn(-c2ccc(NC(=O)C3(c4ccc(Cl)cc4)CCCC3)cc2)n1	i
O=C(c1cccc(C(F)(F)F)c1)N1CCN(CCn2cccn2)CC1	i
CCCN1C(=O)CCc2cc(NC(=O)c3cc(OCC)c(OCC)c(OCC)c3)ccc21	i
O=C(NCC(=O)N1CCc2ccccc21)c1ccc(=O)[nH]c1	i
COc1ccc(CNC(=O)C2CCN(c3ncnc4c3oc3ccccc34)CC2)c(OC)c1	i
O=C(CNC(=O)c1ccccc1)Nc1cccc(-c2ccn[nH]2)c1	i
COc1ccc(CNC(=O)c2nn(-c3ccc(C)cc3)c(OC)cc2=O)cc1	i
O=C(NNC(=O)c1ccc(-c2cccc(Cl)c2)o1)c1ccccc1	i
Cc1cc(C)n(-c2ncc(NC(=O)C(C)Oc3ccccc3)cn2)n1 (stereo not given)	i
CCc1ccc(-n2nnc(C(=O)Nc3ccc(Cl)cc3Cl)c2C)cc1	i
O=C(Nc1nc2c(s1)CN(S(=O)(=O)/C=C/c1ccccc1)CC2)C1CCCO1 (stereo not given)	i
C=C(C)Cn1c(=O)c2c(nc3n(-c4cc(OC)ccc4OC)c(-c4ccccc4)cn23)n(C)c1=O	i
O=C(NC1CCCC1)c1ccc(Cn2c(=S)[nH]c3cc4c(cc3c2=O)OCO4)cc1	i
CC(C)c1nccn1CC1CCN(C(=O)c2cc(-c3cccs3)[nH]n2)CC1	i
O=C(NCCOc1cc(N2CCCC2)ncn1)C1CCCC1	i
CCc1cccc(NC(=O)CSc2cc(-c3ccccn3)nc(C)n2)c1	i
O=C(Nc1nc(C(=O)NCc2cccnc2)co1)c1ccccc1	i

Part of the list above, reformatted.
| GIRK2 activ | Structure |
| --- | --- |
| i | O=C(Nc1nc2c(s1)CN(S(=O)(=O)/C=C/c1ccccc1)CC2)C1CCCO1 (stereo not given) |
| i | O=C(NC1CCCC1)c1ccc(Cn2c(=S)[nH]c3cc4c(cc3c2=O)OCO4)cc1 |

(list continues)
SMILES	GIRK2 activ
COc1ccc2nc(N3CCC(C(=O)N4CCCC4)CC3)sc2c1	i
CCOC(=O)CNC(=O)c1cnn2c1OCCC2	i
COCCN1CCC(NC(=O)c2ccco2)CC1	i
CC1CCN(c2cc(NC(=O)NC(C)C)ncn2)CC1	i
CCN(CCCNC(=O)C1CCCN(c2cnc3ccccc3n2)C1)c1ccccc1 (stereo not given)	i
CCc1ccccc1NC(=O)Cn1c(=O)c(CNc2ccc(C)cc2)cc2cc3c(cc21)OCCO3	i
COc1ccc(Cn2nc3ccc(-c4ccc(C)c(C)c4)nn3c2=O)cc1F	i
O=C1COc2ccccc2N1Cc1nc(-c2cccc(Br)c2)no1	i
N#C/C(C(=O)NCc1ccccc1)=C1/N=C(NC(=O)c2ccc(F)cc2)c2ccccc21	i
Cc1noc(-c2cccnc2N2CCC(NC(=O)c3cc4ccccc4[nH]3)C2)n1 (stereo not given)	i
Cc1cc(=O)oc2cc(OCc3ccc(Cl)cc3)ccc12	i
CCCCOc1ccc(C=Nc2c(C)n(C)n(-c3ccccc3)c2=O)cc1	i
CC(C)c1ccc(S(=O)(=O)N2CCCCC2)cc1	i
Cc1nc(-c2nnn(-c3ccc(F)cc3)c2C)sc1C(=O)NCCc1ccccc1	i
O=C(CSc1nc(-c2cccc([N+](=O)[O-])c2)cs1)NCc1ccc2c(c1)OCO2	i
CCCCC/C=C\C/C=C\C/C=C\CCCCC(=O)O	i
COc1ccccc1CNC(=O)C1CCN(c2ncnc3c2sc2nc(C)cc(C)c23)CC1	i
COCCCNC(=O)C(=O)Nc1ccc(-c2nnc(Nc3ccc(OC)cc3)s2)cc1	i
COc1ccc(NC(=O)NCCCn2ncccc2=O)cc1	i
CC1CCN(S(=O)(=O)c2cccn(CC(=O)NC(C)(C)C)c2=O)CC1	i
COc1ccc(CNC(=O)Nc2ccc3c(c2)C(=O)NCC3)cc1OC	i
O=C(Nc1nc2c(s1)COCC2)c1cc(-c2ccco2)on1	i
CCc1cccc(C)c1NC(=O)Cn1cc(-c2ccccc2)c2ncn(CCCOC)c(=O)c21	i
COC(=O)N1CCc2ccc(Br)cc2C1C(=O)NCCCN1CCCC1=O (stereo not given)	i
COC(=O)Cn1c(=O)c2c(nc3n2CCCN3c2cccc(C)c2)n(C)c1=O	i
O=C(NCCc1nc2ccccc2n1CCOc1ccccc1)C1CCCCC1	i
CC(O)(CCc1ccccc1)CNC(=O)c1ccc(C(F)(F)F)cc1 (stereo not given)	i
CCn1c(SCC(=O)Nc2ccc3c(c2)OCCO3)nc2c3cc(OC)ccc3n(C)c2c1=O	i
CC(C)(C)OC(=O)CSc1nc2c(-c3ccccc3)c[nH]c2c(=O)[nH]1	i
Cc1ccc(OCCn2c(C(C)C)nc3ccccc32)cc1	i
O=C(Nc1ccc2c(c1)OCO2)c1ccc(=O)n(Cc2cccc(F)c2)n1	i
O=c1cccnn1CCNS(=O)(=O)c1ccc(-c2ccccc2)cc1	i
COc1ccccc1NC(=O)NCc1sc(-c2ccccc2F)nc1C	i
Nc1nc(NCc2ccccc2Cl)ncc1[N+](=O)[O-]	i
Cc1ccc(S(=O)(=O)N2CCCCC2CC(=O)NCc2cccs2)cc1 (stereo not given)	i
CCOC(=O)c1ccc(NC(=O)CN2CCN(CC(=O)c3ccco3)CC2)cc1	i
CCN1CCCc2cc(CCNC(=O)C(=O)Nc3ccc(C(C)C)cc3)ccc21	i
Cc1cccc(Cn2c(=O)c3nscc3n(Cc3nc(-c4ccccc4)oc3C)c2=O)c1	i
CCCNC(=O)CSc1cc(NCc2ccccc2Cl)ncn1	i
COc1ccc(CNC(=O)c2nnn(Cc3nc(-c4ccc(OC)cc4)oc3C)c2N)cc1	i
O=C(CCSc1ccccc1)N1CCCC(c2nnc(-c3cccs3)o2)C1 (stereo not given)	i
COc1cc(C(C)=O)ccc1OCC(=O)Nc1cc(-n2nc(C)cc2C)ncn1	i
COc1cccc(CN2N=C(C(=O)N3CCOCC3)S(=O)(=O)c3ccccc32)c1	i
Cc1[nH]nc2c1N=C(c1ccccc1F)c1cc(C(N)=O)ccc1N2	i
Cn1cc(-c2ccc(F)cc2)c2ncn(CC(=O)NCc3ccc(F)c(Cl)c3)c(=O)c21	i
CCn1cnc2c(-c3ccccc3)cn(CC(=O)Nc3ccc(C#N)cc3)c2c1=O	i
Cc1ccc(S(=O)(=O)N2CCN(CC(=O)Nc3cc(Cl)ccc3C)CC2)cc1C	i
COc1ccc2c(CN(C)CCC#N)cc(=O)oc2c1	i
O=C(Nc1ccc(-c2ccn[nH]2)cc1)c1cc(-c2ccco2)on1	i
Fc1ccc(C(=S)N2CCN(C(=S)c3cccc(Br)c3)CC2)cc1	i

Part of the list above in a different format:
structure,GIRK2 activ
Cn1cc(-c2ccc(F)cc2)c2ncn(CC(=O)NCc3ccc(F)c(Cl)c3)c(=O)c21,i
CCn1cnc2c(-c3ccccc3)cn(CC(=O)Nc3ccc(C#N)cc3)c2c1=O,i
Cc1ccc(S(=O)(=O)N2CCN(CC(=O)Nc3cc(Cl)ccc3C)CC2)cc1C,i
COc1ccc2c(CN(C)CCC#N)cc(=O)oc2c1,i
O=C(Nc1ccc(-c2ccn[nH]2)cc1)c1cc(-c2ccco2)on1,i

(list continues)
SMILES	GIRK2 activ
Cn1cc(-c2cccs2)nc1CCNS(=O)(=O)c1ccc(Br)s1	i
COc1ccc(-c2c(NC(=O)Cc3cccs3)n(C)c3ccccc3c2=O)cc1OC	i
Cc1ccc(OCc2ccc(-c3nc(C#N)c(NCCCN(C)C)o3)o2)cc1	i
CS(=O)(=O)N1CCN(C(=O)CSc2nnc(CCc3nc4ccccc4[nH]3)o2)CC1	i
COc1ccc(Cl)cc1C(=O)NCCC(O)c1ccc2c(c1)OCO2 (stereo not given)	i
COc1ccc(C(C)C)cc1S(=O)(=O)NC1CCCC1	i
COc1ccc(Nc2nc(N3CCC(C(N)=O)CC3)nc(C)c2[N+](=O)[O-])cc1	i
COc1ccccc1-c1noc(C2CN(C(=O)Nc3ccc(C)c(C)c3)C2)n1	i
CC(=O)N1CCC(Cn2cnc3cc(C)c(C)cc32)CC1	i
COc1cccc(C(=O)N2CCN(c3oc(/C=C/c4ccc(Cl)cc4)nc3C#N)CC2)c1	i
O=C(/C=C/c1ccco1)NCC(O)c1ccc(C(F)(F)F)cc1 (stereo not given)	i
Clc1cccc(-n2cc(-c3noc(-c4ccc5c(c4)OCO5)n3)nn2)c1	i
O=C(NCC(F)(F)F)C1CCN(S(=O)(=O)Cc2cccc(F)c2)CC1	i
C=CCn1c(=O)c2ccccc2n(Cc2nc(-c3ccc(C)c(C)c3)no2)c1=O	i
O=C(NCCN1CCN(c2ccc(F)cc2)CC1)C1CC(=O)N(c2ccccc2)C1 (stereo not given)	i
CCOc1ccccc1-n1c(C)c(C)n2c3c(=O)n(C)c(=O)n(C)c3nc12	i
COCCN1C(=O)CC(Sc2ncccc2C(=O)O)C1=O (stereo not given)	i
N#Cc1c(NC(=O)CCCSc2ccc(F)cc2)sc2c1CCCC2	i
O=C(NCCOc1cccc2cccnc12)c1cc(-c2cccs2)[nH]n1	i
COCCCNC(=O)c1cc2c(=O)n3ccccc3nc2n1Cc1ccccc1	i
O=C(Cn1nc(-c2ccccc2)c2sc(N3CCOCC3)nc2c1=O)c1ccc2c(c1)OCO2	i
NC(=O)c1ccccc1OCC#CCNC(=O)Cn1cnc2ccccc21	i
Cc1cccc(N2CCN(C(=O)N3CCC(C)CC3)CC2)c1C	i
COc1ccc(CNC(=O)Cn2nc3c(N4CCN(c5ccccc5)CC4)nccn3c2=O)cc1	i
COC(=O)NCc1ccc(C(=O)c2cccs2)s1	i
O=C(Nc1nc2c(s1)CN(C(=O)CSC1CCCC1)CC2)c1ccoc1	i
Cc1ccccc1OCC(=O)N1CCCC(COCc2ccccc2)C1 (stereo not given)	i
O=C(Nc1ccc(-c2ccn[nH]2)cc1)c1ccc2nc[nH]c2c1	i
CCOc1cc(/C=C2\SC(=S)N(c3ccc(N(CC)CC)cc3)C2=O)ccc1O	i
COc1ccc(N2CC(c3nc4ccccc4n3CCCOc3ccccc3)CC2=O)cc1 (stereo not given)	i

Some of these compounds in order of count of non-hydrogen atoms, low to high:
SMILES	GIRK2 activ
COC(=O)NCc1ccc(C(=O)c2cccs2)s1	i
Cc1cccc(N2CCN(C(=O)N3CCC(C)CC3)CC2)c1C	i
Cc1ccccc1OCC(=O)N1CCCC(COCc2ccccc2)C1 (stereo not given)	i
CCOc1cc(/C=C2\SC(=S)N(c3ccc(N(CC)CC)cc3)C2=O)ccc1O	i
COc1ccc(N2CC(c3nc4ccccc4n3CCCOc3ccccc3)CC2=O)cc1 (stereo not given)	i

Four of these compounds, set out differently:
SMILES,GIRK2 activ
Cc1cccc(N2CCN(C(=O)N3CCC(C)CC3)CC2)c1C,i
COc1ccc(CNC(=O)Cn2nc3c(N4CCN(c5ccccc5)CC4)nccn3c2=O)cc1,i
COC(=O)NCc1ccc(C(=O)c2cccs2)s1,i
O=C(Nc1nc2c(s1)CN(C(=O)CSC1CCCC1)CC2)c1ccoc1,i

The listing continues.
SMILES	GIRK2 activ
Cc1cc(C(=O)Nc2nc(C(=O)Nc3nc4c(s3)CCCC4)co2)no1	i
O=C(NCC1(c2ccc(F)cc2)CC1)Nc1ccc2c(c1)OCO2	i
O=C(CC1CCCCN1S(=O)(=O)c1ccccc1)NC1CCCCC1 (stereo not given)	i
Cc1nnsc1C(=O)N1CCC(CNC(=O)c2cc(C3CC3)on2)CC1	i
CC(C)(C)C(=O)NCCNc1ccc(-n2cccc2)nn1	i
COc1cc2c(cc1O)[C@H](c1ccc(O[C@@H]3O[C@H](CO)[C@@H](O)[C@H](O)[C@H]3O)c(OC)c1)[C@@H](CO)[C@](O)(CO)C2	i
O=c1oc2ccc(F)cc2cc1S(=O)(=O)N1CCc2ccccc2C1	i
O=P(O)(O)OC1C(OP(=O)(O)O)[C@@H](O)[C@H](O)C(OP(=O)(O)O)[C@@H]1O (stereo not given in full)	i
O=S(=O)(c1ccc(C(F)(F)F)cc1)N1CC(c2nc(Cc3cccs3)no2)C1	i
O=C(CSc1nnc(Cn2ccc(=O)[nH]c2=O)o1)Nc1cc(F)ccc1F	i
Cc1cc(C)n2nc(C)c(-c3ccccc3)c2n1	i
COc1ccccc1C(=O)Nc1ccc2nc(-c3ccc(Cl)cc3)cc(OCC(N)=O)c2c1	i
Cn1c(=O)c2ccc(-c3cccs3)nc2n1CC(=O)NC(C)(C)C	i
COc1ccc(OCC(=O)Nc2ccc3c(c2)CCCN3S(=O)(=O)c2ccc(OC)cc2)cc1	i
CC(C)(C)c1csc(CN2CCN(C(=O)c3c(F)cccc3Cl)CC2)n1	i
O=S(=O)(c1ccc2c(c1)OCCO2)N1CC(Oc2nc3c(F)cccc3s2)C1	i
O=C(Oc1ccccc1)c1cc2cc(Br)ccc2oc1=O	i
CCOc1ccc(NC(=O)CSc2nnc3scc(-c4ccc(Cl)cc4)n23)cc1	i
COc1ccccc1C1(CNS(=O)(=O)Cc2ccc(C(F)(F)F)cc2)CCOCC1	i
Cc1c(C)c2c(c(C)c1O)CCC(C)(COc1ccc(CC3SC(=O)NC3=O)cc1)O2 (stereo not given)	i
O=C(CCS(=O)(=O)Cc1ccccc1)Nc1nnc(-c2cccs2)o1	i
CCCc1cnc2c(c1SCc1ccccc1)c(=O)n(C)c(=O)n2C	i
COc1cc(C(=O)NC(=S)Nc2ccc(S(=O)(=O)N3CCCCC3)cc2)cc(OC)c1OC	i
Cn1c(C(F)(F)F)nn(CCNS(=O)(=O)c2c(F)cccc2F)c1=O	i
Cc1cc(C)c(C)c(S(=O)(=O)Nc2ccc(C(=O)N3CCN(C)CC3)cc2)c1C	i
COc1ccc(Cl)cc1NC(=O)Cn1nc2c(N3CCN(c4ccccc4)CC3)nccn2c1=O	i
CC(=O)NCc1cccc(C#Cc2cncnc2Nc2ccc(OCc3cccc(F)c3)c(Cl)c2)c1	i
O=C(CSCc1ccccc1)NC1CCN(c2nccs2)CC1	i
CCOc1cccc(NC(=O)Cc2c(C)n(C(=O)c3ccc(Cl)cc3)c3ccc(OC)cc23)c1	i
CN(C)c1cccc(C(=O)N2CCC(Oc3cnccn3)CC2)c1	i
Cc1ccc(S(=O)(=O)Cc2nc(-c3ccc(Br)cc3)no2)cc1	i
